Bioassay records deposited in PubChem BioAssay by several laboratories.
Autofluor counter – flagged as autofluorescent in microsphere protease counterscreen | compound autofluorescence counterscreen, microsphere flow cytometry; stronger effect = higher value | AID 624483 | fluorescence intensity (concentration not given with the values) | 360,000 compounds, 3.1% hits;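 active = at least 3 SD above the mean of all compounds, about 16000 in these data; inconclusive = too few beads counted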;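 also: 100 nL of 1 mM stock went into each well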
ugtP null kill – growth inhibition of ugtP-null S. aureus, primary screen, RN4220 ugtP deletion, OD600. AID 1259309, 2017. 16 h; some inactives read as strong as hits. 330,000 compounds, 0.54% hits. growth inhibition, % (no concentration beside the values);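 active = z-score under -3 and OD600 up to 0.15 on both plates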;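 also: plate controls were untreated wells for no effect and antibiotic for full effect; wells of about 80 µL received 100 nL stock; the first replicate is given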
PrP 5UTR inh – inhibition of PrP 5' UTR reporter expression; cell-based PrP 5' UTR mRNA reporter, plate reader; inhibition, % (no concentration beside the values); 340,000 compounds, 0.35% hits;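 active = every replicate at 50% or more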;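 also: 0 = median of the neutral control wells; tested in H4 reporter cells; numbers are from one replicate; inactives centre near -14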
Mtb hypoxia rep – PubChem AID 1159583. M. tuberculosis hypoxia-regulated fluorescent reporter, fluorescence. fluorescence inhibition, % (no concentration beside the values). 300,000 compounds, 0.1% hits;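 active = 35 to 45% if threefold the growth effect, above 45% if 1.5-fold the growth effect; inactive = the rest, general growth blockers included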;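 also: wells of about 50 µL received 100 nL stock; 0% = vehicle wells and 100% = reference inhibitor wells; whole bacteria with a GFP reporter of the hypoxia response; strong numbers were not always called active; many hits fall short of the cut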
RN4220 kill – growth inhibition of S. aureus RN4220, primary screen, OD600; 16 h; inhibition, % (concentration not given with the values); 330,000 compounds, 0.33% hits;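 active = z-score of -3 or lower and OD600 up to 0.18 on both plates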;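 also: plate controls were untreated cells for no effect and reference antibiotic for full effect; stock transfer was 100 nL into about 80 µL; one replicate is shown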
BJeLR lethal – MLPCN primary cell-based screen for lethality selective to Ras in HRASV12 cells; BJeLR (HRASV12) viability, CellTiter-Glo ATP luminescence, 48 h; reference of the scale not given here; inhibition, % (concentration not given with the values); 300,000 compounds, 0.17% hits;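 active = replicate mean above 50%; inconclusive = above 50% but judged a plate artefact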;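 also: 50 nL library stock added to about 25 µL; numbers are from one replicate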
Mtb hypoxia rep growth – also measured in Mtb hypoxia rep; calls as there; growth inhibition, %; measured here: M. tuberculosis growth (absorbance);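 0% = vehicle and 100% = reference antibiotic; read after six days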
* hit, by the source's call; ? = inconclusive; nt = no result given.

SMILES	Autofluor counter	ugtP null kill	PrP 5UTR inh	Mtb hypoxia rep	Mtb hypoxia rep growth	RN4220 kill	BJeLR lethal
Cc1ccc(S(=O)(=O)Nc2ccncc2)c(C)c1N(C)S(=O)(=O)c1ccc(F)cc1	2129	3	-46	8	1	1.7	9
COc1ccc(CCN2CC(C(=O)NCc3cc(C(C)C)no3)CCC2=O)cc1 (centres undefined)	5793	3	7	6	16	4.0	-7
Cc1ccc(NC(=O)C2CCCCC2)c(O)c1	nt	7	nt	15	-6	12	7
Cc1ccc(S(=O)(=O)NCC(=O)OCC(=O)Nc2ccccc2OC(F)F)cc1	2226	7	-17	15	8	3.5	6
COc1ccc(C(=O)NCC(=O)OCC(=O)NCc2ccc3c(c2)OCO3)cc1	3818	3	-41	12	9	-0.4	nt
CCO[C@H]1OC(C(=O)N2CCN(C)CC2)=C[C@@H](c2ccc3c(c2)OCO3)[C@@H]1CCCO	2928	nt	9	nt	nt	nt	6
CCN(CC)S(=O)(=O)c1cccc(-c2nnc(SCCOc3ccccc3)o2)c1	4482	5	-9	5	6	6.4	1
CC=Cc1ccc(OC(C)=O)c(OC)c1	nt	1	nt	14	11	2.2	nt
Cc1ccc(N(CC(=O)NCCc2ccccc2)C(=O)c2csnn2)cc1	3568	10	-20	-2	-4	4.4	11
N#C/C(=C\c1ccc(OCCN2CCOCC2)cc1)C(=O)Nc1ccccc1F	4978	5	-10	6	-3	0.4	1
CC(C)NC(=O)COc1ccc(S(=O)(=O)N(C)Cc2ccccc2)cc1	4959	3	-5	1	3	5.8	1
CCOC(=O)NC(=O)c1cn(CCNCCO)c(=O)[nH]c1=O	3817	1	-8	13	2	-0.3	-6
CC(C)(C)c1nc2ccccc2c2nnc(SCC(=O)Nc3nccs3)n12	7987	-5	-31	0	-7	9.8	-8
O=C(CCc1ccccc1)Nc1ccc2c(c1)C(=O)OC2	4164	1	6	9	5	4.6	-1
CC(=O)N/C(=C\c1ccccc1)C(=O)OC(C)C(=O)N(C)c1ccccc1 (centres undefined)	5810	14	-5	4	-1	3.6	3
COc1ccc(C=NNC(=O)CCN2CCN(c3ccccc3)CC2)cc1OC	nt	14	nt	2	-6	0.1	nt
COc1ccccc1C(=O)NC(=O)COC(=O)CCOc1ccccc1C	5836	6	-18	-2	-1	7.0	-3
Cc1noc(C)c1S(=O)(=O)Nc1ccccc1OC(F)(F)F	4415	7	-12	7	-3	12	-9
CCCCn1c(N)c(N(CCC(C)C)C(=O)COC(=O)c2cccnc2OCC)c(=O)[nH]c1=O	2887	4	-12	10	-1	2.0	nt
COc1cc(/C=N/S(=O)(=O)CCc2ccccc2)ccc1O	2449	nt	-11	nt	nt	nt	6
O=C(N[C@@H](Cc1ccccc1)C(=O)NC1CCCCCC1)c1ccco1	6305	4	-16	4	11	2.4	7
CCN(CC)S(=O)(=O)c1ccc(C(=O)N2CCc3ccccc32)cc1	4414	-1	-20	10	-1	4.1	-1
CCCCN1CCC2C=CCC(C(=O)Nc3nccs3)C2C1=O (centres undefined)	nt	0	nt	12	14	7.2	nt
CC1CC(C)CN(C(=O)c2nn(C)c3c2CSc2ccccc2-3)C1 (centres undefined)	5344	-4	-23	16	16	0.7	3
O=C(CSc1nnc(-c2ccccn2)o1)Nc1ccc(F)cc1	6464	3	-36	2	2	0.2	5
Carrying on:
SMILES	Autofluor counter	ugtP null kill	PrP 5UTR inh	Mtb hypoxia rep	Mtb hypoxia rep growth	RN4220 kill	BJeLR lethal
CC1CCN(c2ccc3nnc(CCC(=O)NC(C)C)n3n2)CC1	3711	-3	-6	13	-1	-1.6	6
COc1ccc(C=NNc2nc(N)cc(Cl)n2)cc1OC	nt	-2	nt	-4	9	2.1	nt
O=C(NNC1=NCCN1Cc1ccccc1)c1cccc(C(F)(F)F)c1	5613	-16	-17	2	19	3.5	5
c1ccc(CCn2cccc2)nc1	3649	1	-12	0	2	1.2	nt
CCc1cc(=O)oc2c(C)c(O)c(CN(C)C)cc12	?	-2	-5	-5	-4	2.0	-11
CCC(C)c1ccc(NC(=O)C/C(C)=N/NC(=O)c2cnccn2)cc1 (centres undefined)	9480	nt	-25	nt	nt	nt	-19
Cc1ccccc1N1C(=O)CC(=O)NC1=O	21951*	-8	-15	-2	13	7.3	0
Cn1nccc1C(=O)Nc1cccc(C(F)(F)F)c1	2543	-2	-4	-3	4	0.7	-4
C=C(C)CCC1(C)NC(=O)N(c2ccccc2)N1 (centres undefined)	nt	0	-17	1	19	0.1	-5
COc1ccc(Nc2nc(=O)[nH]nc2C)cc1	8693	7	-17	6	6	2.4	-13
CCOC(=O)Nc1ccc(C(=O)NCC2CCCO2)cc1 (centres undefined)	3524	5	-1	nt	nt	0.3	2
O=C(NCCC(c1ccccc1)c1ccccc1)c1ccc(Br)o1	3667	8	-12	7	0	-1.2	-1
CC(=O)/C(=N\Nc1ccccc1)Sc1nncn1C	2160	nt	-8	nt	nt	nt	9
CCCCN(CC)C(=O)c1cc2c(=O)n3cccc(C)c3nc2s1	3983	0	-11	18	12	2.1	-2
O=c1nc2s/c(=C\c3ccco3)c(=O)n2nc1Cc1ccccc1	?	nt	-17	nt	nt	nt	-1
Cc1c(CCC(=O)N[C@@H](CC(C)C)C(=O)O)c(=O)oc2cc3oc4c(c3cc12)CCCC4	2968	3	5	7	-6	4.7	5
CC(C)(C)C1CCC(=NNC(=S)Nc2cccnc2)CC1 (centres undefined)	4042	4	-34	-1	8	8.5	6
COc1ccc(CNC(=O)c2nnn(Cc3ccc(OC)cc3)c2N)cc1	6050	2	-8	nt	nt	-0.8	-1
C=CCN1CCN(C(=O)c2cc3c(s2)CCCC3)CC1	nt	1	-19	11	5	1.8	15
CN1C(=O)c2cccc(NC(=O)CCc3ccccc3)c2C1=O	5304	14	-4	6	7	4.5	8
Fc1ccc(CNCc2ccco2)cc1	3864	10	43	4	5	5.8	-5
COc1ccc(Nc2oc(-c3ccccc3)nc2C#N)cc1	4439	6	-49	-3	3	3.3	-9
CCOc1cc(/C=C2\SC(=O)N(CC(=O)Nc3ccccc3F)C2=O)cc([N+](=O)[O-])c1O	3303	13	-13	12	11	18	2
CCc1ccc(NC(=O)c2cnc(SC)nc2C)cc1	3145	9	-25	5	3	0.8	1
O=C(NCCOc1ccccc1)C1CCC(=O)N(CCc2ccccn2)C1 (centres undefined)	5470	1	-26	-1	-8	-3.2	5
Next part.
SMILES	Autofluor counter	ugtP null kill	PrP 5UTR inh	Mtb hypoxia rep	Mtb hypoxia rep growth	RN4220 kill	BJeLR lethal
CCOc1cc(-c2noc(CCC(=O)NCCc3ccccc3)n2)ccc1OC	4075	6	-13	16	3	6.9	-3
C[C@]12CCC(=O)C=C1[C@H](O)C[C@@H]1[C@@H]2[C@@H](O)C[C@@]2(C)[C@H]1CC[C@]2(O)C(=O)CO	4460	nt	-6	nt	nt	nt	1
O=C(Nc1ccc(S(=O)(=O)Nc2ncccn2)cc1)C(F)(F)F	3598	-2	-15	8	25	1.5	-14
O=C(NN=Cc1cn(-c2ccccc2)nc1-c1cccnc1)c1ccc(F)cc1	nt	-4	nt	22	8	-2.9	nt
O=C(CCS(=O)(=O)c1ccccc1)Nc1ccc(-c2nc3ccccc3s2)c(O)c1	2168	nt	-3	nt	nt	nt	-9
O=C1CSC(=Nc2cccc(Cl)c2Cl)N1	4017	-3	-13	-8	0	2.5	-19
Cc1ccnc(NC(=O)CCN2C(=O)c3ccccc3S2(=O)=O)n1	nt	4	-19	0	-1	3.9	6
Cc1ccccc1-n1c(=O)c2ccccc2n2c(=O)[nH]nc12	6030	2	-14	8	3	2.0	2
CC1CC2(C)Oc3ccccc3C3OCC1(CO)C(C)C32 (centres undefined)	19211*	0	-50	-3	-1	5.1	-4
COc1ccc(C2(NC(C)=O)CCN(C(=O)c3ccco3)CC2)cc1	2837	6	-14	5	6	5.3	3
CC(=O)Nc1ccc(NS(=O)(=O)Cc2ccccc2)cc1	4338	-2	-22	18	9	2.5	5
CCN1C[C@@]2(COC)C3[C@@H](OC)[C@H]4[C@@H]1[C@@]3(C1C[C@H]3[C@H](OC(C)=O)C1[C@]4(OC(C)=O)C[C@H]3OC)[C@@H](OC)C[C@H]2OC(C)=O (some centres undefined)	5415	7	nt	nt	nt	3.0	-4
Cc1ccc(NC(=O)CCn2c(=O)c3cccn3c3ccccc32)c(C)c1	6661	1	-19	0	-2	-1.5	-3
COc1ccc(C)cc1NC(=O)COCC(=O)O	20410*	-1	-24	6	9	2.2	-1
COc1ccc(OC)c(C(C)=NNC(=O)c2cc3cc(Cl)ccc3n2C)c1	nt	-7	nt	1	4	-0.2	nt
CCOC(=O)C1=C(C)OC(N)=C(C(=O)OCC)C12C(=O)Nc1ccc(Br)cc12 (centres undefined)	2776	-15	-4	nt	nt	1.9	-6
COc1ccc(C)cc1NC(=O)c1nn(C)c(C(=O)Nc2cc(C)ccc2OC)c1[N+](=O)[O-]	nt	16	-11	10	-1	9.8	-8
O=C(c1ccccc1Cl)N(Cc1ccc(Cl)c(Cl)c1)N1C(=O)CCCC1=O	5777	9	-25	3	-5	2.5	1
Cc1nn(C)c(C)c1S(=O)(=O)N1CCCC(C(=O)NCCc2ccc(Cl)cc2)C1 (centres undefined)	6200	-7	-15	nt	nt	8.8	nt
CC(C)(C)C(=O)Nc1cc(S(=O)(=O)Nc2ccc(Cl)cc2)ccc1O	3153	1	-18	-1	4	-11	-3
Cc1nc2sc(C(c3cccs3)N3CCOCC3)c(O)n2n1 (centres undefined)	6940	-5	-17	0	13	-11	-11
CCCCN(C(=O)c1c(C)noc1C)c1c(N)n(CCC)c(=O)[nH]c1=O	4020	6	-25	-2	7	4.5	nt
CCCCS(=O)CC(COC)OC(=O)c1ccccc1 (centres undefined)	2457	9	-18	-2	-2	5.6	-9
O=C(N/N=C/c1cc(Br)cc([N+](=O)[O-])c1O)c1ccc(NC(=O)c2ccc(F)cc2)cc1	4699	nt	-48	nt	nt	nt	-2
CSc1ccccc1NS(=O)(=O)c1ccccc1	7611	-4	-5	11	5	5.9	-7

Random excerpt: 3 compounds from above
SMILES	Autofluor counter	ugtP null kill	PrP 5UTR inh	Mtb hypoxia rep	Mtb hypoxia rep growth	RN4220 kill	BJeLR lethal
Cc1nc2sc(C(c3cccs3)N3CCOCC3)c(O)n2n1 (centres undefined)	6940	-5	-17	0	13	-11	-11
O=C(N/N=C/c1cc(Br)cc([N+](=O)[O-])c1O)c1ccc(NC(=O)c2ccc(F)cc2)cc1	4699	nt	-48	nt	nt	nt	-2
COc1ccc(C)cc1NC(=O)COCC(=O)O	20410*	-1	-24	6	9	2.2	-1

(listing goes on)
SMILES	Autofluor counter	ugtP null kill	PrP 5UTR inh	Mtb hypoxia rep	Mtb hypoxia rep growth	RN4220 kill	BJeLR lethal
CN(Cc1ccccc1)C(=O)CN(C1CCCCC1)S(C)(=O)=O	nt	-4	-3	16	2	-1.4	-3
Cc1cc(Cl)ccc1OCC(=O)Nc1nc(-c2cccs2)cs1	3027	-18	-14	8	8	16	-8
COc1ccc(-c2cc(C(=O)NCCN3CCOCC3)c3ccccc3n2)cc1	3417	-6	-12	nt	nt	-2.8	31
CCc1ccc(C2=CSC3=NCCN23)cc1	3296	12	13	10	-1	4.4	11
CNCC(O)COc1cccc(OC)c1 (centres undefined)	4090	2	-18	-1	11	0.5	-15
Cc1ccc(NC(=S)N2CCOCC2)c(C)c1	nt	6	-5	14	7	-1.6	2
Cc1ccnc2nc(C(=O)Nc3nnc(-c4ccccc4)o3)nn12	4843	13	-34	-9	-12	11	-2
C/C(=N\Nc1nc(C)cc(-c2ccccc2)n1)c1cccc(N)c1	5068	nt	-14	nt	nt	nt	-6
O=C(CCC1CCCN(C(=O)c2ccsc2)C1)N1CCN(c2ccccn2)CC1 (centres undefined)	4685	8	-15	0	7	3.6	9
CC(=O)c1cc(CN2CCN(C3CCCCC3)C(CCO)C2)cs1 (centres undefined)	2394	0	-6	1	14	-1.5	5
COc1ccccc1NC(=O)N1CCCC1C(=O)NCc1ccc(F)cc1 (centres undefined)	8863	-1	-11	11	5	2.3	-19
C/C(=N\NC(=S)NCc1ccccc1)c1ccc2ccccc2c1OC(F)F	4936	nt	-21	nt	nt	nt	-2

Entries above that have a cyano group:
SMILES	Autofluor counter	ugtP null kill	PrP 5UTR inh	Mtb hypoxia rep	Mtb hypoxia rep growth	RN4220 kill	BJeLR lethal
N#C/C(=C\c1ccc(OCCN2CCOCC2)cc1)C(=O)Nc1ccccc1F	4978	5	-10	6	-3	0.4	1
COc1ccc(Nc2oc(-c3ccccc3)nc2C#N)cc1	4439	6	-49	-3	3	3.3	-9
